StopGo RLuc: lowers the Renilla signal of an FMDV 2A StopGo reporter; HEK cells with a luciferase reporter of 2A StopGo recoding; Potency, µM (doses to about 57.5 µM), without a hit: at the top dose signal change, negative = less light; 120,000 tested, 0.32% active; active means well fitted falling curve with a large enough effect; inconclusive means small, poorly fitted or top-dose-only effect; inactive means no such curve, though single readings can be large or run the other way; note: nearly all actives have a fitted effect of over 55% in size; overnight with compound
StopGo FLuc: FMDV 2A StopGo reporter, firefly signal; Potency, µM (series often up to 57.5 µM), for the others: top-dose signal change, negative = less light; HEK cells with a luciferase reporter of 2A StopGo recoding; 120,000 tested, 0.23% active; active = well fitted falling curve with a large enough effect; inconclusive = small, poorly fitted or top-dose-only effect; inactive = no such curve, though single readings can be large or run the other way; note: nearly all actives have a fitted effect of over 60% in size; overnight with compound
Active calls of the source: *; ? = inconclusive; [ ] = remark or other dose. % is set by controls: 0 for no effect and ±100 for the full control effect; potency is the fitted concentration of half-maximal effect.

Compound | StopGo RLuc | StopGo FLuc
Cc1ccccc1NC(=O)c1c(C)oc2ccc(O)c(CN(C)Cc3ccccc3)c12 | -4.2% | -26.5%
CCc1ccc(S(=O)(=O)c2cn(CC(=O)Nc3ccc(C)cc3)c3ccccc3c2=O)cc1 | 7.5% | -28.8%
COc1cccc(SC(C)C(=O)c2ccc3c(c2)NC(=O)CO3)c1 (centres undefined) | -9.4% | ?
O=C(NC1CCCCC1)C1CCCN(C(=O)c2ccc3cc[nH]c3c2)C1 (centres undefined) | 5.4% | 13.9%
CCn1c(SCC(=O)c2ccc(Br)s2)nnc1-c1ccccc1 | 40.8%[activator] | 1.1%
Cc1cccc(NC(=O)c2cc3c(=O)n4ccccc4nc3n2C)c1C | 28.8% | 54.2%[activator]
CC(C)C(=O)Nc1cc2c(cc1Sc1ccccc1Cl)n(C)c(=O)n2C | 23.6% | 34.8%[activator]
CC(OC(=O)CC1Oc2ccccc2NC1=O)C(=O)NC1CCCCC1 (centres undefined) | -3.2%[1.06 µM] | 3.0%
Cc1cc(C)c2c(NC(=O)c3ccccc3Cl)c(C(=O)Nc3ccc(C)c(C)c3)sc2n1 | -0.1% | 0.0%
O=C(NCC12CC3CC(CC(C3)C1)C2)C1CCCCC1 | 8.8% | 0.0%
CC1CCCCN1S(=O)(=O)c1ccc2nc(N3CCCCCC3)ccc2c1 (centres undefined) | ? | ?
Cc1cc(C)c(NC(=O)CSc2nc3ccncc3[nH]2)c(C)c1 | -20.3% | -15.9%
Cc1cc2c(cc3c(SCC(=O)Nc4ccc(Cl)cc4F)nncn32)o1 | -8.3% | -7.6%
Cc1oc(C23CC4CC(CC(C4)C2)C3)cc1C(=O)NC1CCOC1=O (centres undefined) | -1.1% | 7.5%
NC(=O)CCS(=O)(=O)CCN1CCN(S(=O)(=O)c2ccccc2)CC1 | -2.6% | -1.1%
CC(=O)OC1(c2ccccc2)CCN(C)CC1(C)C (centres undefined) | 8.0% | 19.7%
O=C(Nc1ccccc1-c1ccccc1)c1ccccc1Cl | 106.6%[activator] | 28.3%
Cc1ccccc1C(=O)N1CCN(c2ccc([N+](=O)[O-])c(-n3nc(C)c4ccccc4c3=O)c2)CC1 | -17.5% | -19.5%
CCCCSCCCNC(=O)C1CCN(Cc2nc(-c3cccc(Br)c3)oc2C)CC1 | -5.8% | -13.2%
O=C(O)CCc1ncc(-c2ccccc2F)o1 | 3.4% | 0.0%
Cc1ccc(NC(=O)CS(=O)(=O)c2nc(-c3ccc(C)cc3)cn2-c2ccc(C)cc2)cc1 | 18.2% | 86.6%[activator]
CC(=O)c1cc(-c2ccccc2)n(CCC(=O)Nc2nc3c(C)cccc3s2)c1C | -11.4% | -4.4%
CC(C)C(=O)Nc1ccc(Cl)cc1F | 1.8% | 4.4%
O=c1[nH]c(C2CCCN(S(=O)(=O)c3ccccc3Cl)C2)nc2c1nnn2Cc1ccc(OC(F)(F)F)cc1 (centres undefined) | -7.4% | -11.4%
CCCNC(=O)CNC(=O)c1cc(=O)[nH]c2ccccc12 | -1.0% | 6.0%
CCn1cc(C(=O)OCC(=O)Nc2cccc(C(C)=O)c2)c(=O)c2ccc(C)nc21 | -4.3% | -4.5%
CC(C)(C)CC(=O)N1CCN(C2CCCCC2)CC1 | -6.0% | -15.1%
COc1ccc(NC(=O)CN2C(=O)C(c3ccc(C)cc3)=NC23CCCCCC3)cc1Cl | -22.5% | 21.8%
Cc1ccc2nc(C)cc(C(=O)OC(C)C(=O)Nc3cc(C)on3)c2c1 (centres undefined) | 9.2% | 13.0%
Cc1cc(C)c(NC(=O)CSc2ccc(-c3sc(-c4ccccc4)nc3C)nn2)c(C)c1 | -11.2% | -23.5%
CCOc1cc2c(cc1OCC)C(CC(=O)O)N(C(=O)Nc1ccc(Br)c(C)c1)CC2 (centres undefined) | -13.4% | 22.2%
Cc1ccc(Cc2ccc(C(=O)O)o2)cc1 | 7.7% | 15.5%
COc1ccc(Cl)cc1N1CC(c2nc3ccccc3n2C)CC1=O (centres undefined) | 13.3% | -5.1%
CC(=O)Nc1ccc(C)cc1S(=O)(=O)N1CCCCCC1c1cccs1 (centres undefined) | 249.5%[activator] | 6.4%
CC(C)Oc1ccc(C(=O)/C(=C\c2cccnc2)c2nc3ccccc3o2)cc1 | ? | ?
Cc1ccccc1-c1nnc(CN2CCN(c3cc(Cl)ccc3C)CC2)o1 | 2.8% | 5.2%
Cc1nc(S(=O)(=O)N2CCC(C)CC2)c(C#N)c(C)c1Cl | 7.0% | -14.0%
CCn1nc(-c2ccccc2)c(-c2ccccc2)c(C(=O)OCCOC)c1=O | 1.1% | -19.7%
CCc1ccc(NC(=O)CN2C(=O)CCSc3ccc(S(=O)(=O)N4CCCC4)cc32)cc1 | -4.4% | -20.8%
CCOC(=O)c1c(S(=O)(=O)NCC(=O)Nc2cccc(CC)c2)c(C)n(C)c1C | 96.5%[activator] | -15.1%
CCOC(=O)c1ccc(N2CCN(c3ccccc3F)CC2)c(NC(=O)Nc2ccc(Cl)c(Cl)c2)c1 | -11.6% | -15.8%
Cc1nnc(SCC(=O)c2ccc(F)c(F)c2)n1Cc1ccccc1 | 12.1% | 27.5%
COc1ccc(C2Nc3ccccc3-c3nnc(SC)nc3O2)cc1C (centres undefined) | -6.3% | 8.6%
O=C(c1ccn(COc2ccccc2)n1)N1CCN(Cc2ccc(Cl)cc2)CC1 | ? | ?
CCCCn1c(=O)nc2n(-c3ccc(F)cc3)c3ccccc3cc-2c1=O | 27.8% | 12.0%
CCNc1c(NS(=O)(=O)c2cccc(F)c2)c(=O)oc2ccccc12 | 0.7% | 5.1%
CN(Cc1cccc(F)c1)c1ccc(S(N)(=O)=O)cn1 | 8.4% | 10.2%
COc1ccc(CCNc2nc3ccc(C)cc3n3cnnc23)cc1OC | -9.2% | -3.0%
Cc1ccc(S(=O)(=O)NCC2CN(Cc3ccccc3)CCO2)c(Br)c1 (centres undefined) | 93.2%[activator] | -2.0%
N#Cc1nc(COc2ccccc2)oc1NCc1ccccc1Cl | 0.0% | 26.4%

The list goes on.
Compound | StopGo RLuc | StopGo FLuc
Cn1c(=O)oc2cc(S(=O)(=O)N3CCCC(C(=O)N4CCN(c5ccccc5F)CC4)C3)ccc21 (centres undefined) | -5.2% | ?
Cc1ccc(NC(=O)Cc2c(C)nc3nc(-c4cccs4)nn3c2C)c(C)c1 | -22.5% | -8.7%
C=CCn1c(-n2nc(C)cc2C)nc2c1c(=O)n(CCN1CCOCC1)c(=O)n2C | 0.7% | 8.7%
CC1(CBr)C2CCC1(CBr)c1nc3cc(Cl)c(Cl)cc3nc12 (centres undefined) | -3.6% | 10.2%
N#CC1(NC(=O)CSc2ncccn2)CCCC1 | 5.1% | 2.2%
CCCNc1ncnc2c1c(-c1ccccc1)cn2-c1ccccc1 | -11.1% | -21.0%
O=C(Cn1nnc(-c2cccc(F)c2)n1)N(Cc1cccs1)c1ccc2c(c1)OCCO2 | 14.8% | 5.6%
O=C(OCC(=O)c1c[nH]c2ccccc12)c1ccccc1C(=O)c1ccc(Cl)c([N+](=O)[O-])c1 | 18.5% | 25.3%
O=C(Nc1ccc2c(c1)N(C1CCCC1)C(=O)c1ccccc1S2)c1ccccc1F | ? | ?
O=c1c2sccc2ncn1Cc1coc(-c2cccc(F)c2)n1 | 12.6% | 0.0%
Cc1cn(C)c(CC(=O)Nc2ccc(F)cc2Cl)c1C(=O)O | -10.5% | -11.2%
CCc1ccc2oc(-c3cccc(NC(=O)c4ccc([N+](=O)[O-])o4)c3)nc2c1 | -14.4% | 127.7%[activator]
N#Cc1c(N)n[nH]c1CCCNc1nc(-c2cccnc2)nc2ccccc12 | 150.0%[activator] | 0.0%
COc1ccc(-n2ncc(C(=O)Nc3ccc4c(c3)OCCO4)c2C2CCN(C(=O)OC(C)(C)C)CC2)cc1 | 44.2%[activator] | 1.2%
O=S(=O)(NCC1(c2ccccc2)CC1)c1cc(F)ccc1F | 45.8%[activator] | 1.3%
CNC(=O)/C(C#N)=C/c1cn(CC(=O)NCc2ccco2)c2ccccc12 | 0.0% | 38.3%[activator]
COc1cccc(/C=C/c2nc(C#N)c(N3CCCCC3)o2)c1 | 1.2% | -9.2%
CC(C)CN(CCNC(=O)c1cc(=O)[nH]c2ccc(S(=O)(=O)N3CCCCCC3)cc12)CC(C)C | -2.6% | -7.5%
COc1cc2c(c(OC)c1)C(c1ccccc1)C1=C(CCCC1=O)N2 (centres undefined) | 2.1% | -0.2%
COc1cccc(CNCc2c(C(=O)O)n(Cc3ccc(C)cc3)c3cc(C)ccc23)c1OC | 7.3% | -13.5%
CSc1nc(-c2ccc(F)cc2)nc2c1Cc1c(CO)cnc(C)c1O2 | -7.0% | -18.6%
Cc1ccc(NC(=O)CN2C(=O)CCc3cc(S(=O)(=O)N4CCCC4)ccc32)cc1F | 8.3% | -2.1%
Cc1ccccc1CN1C(=O)c2ccccc2Sc2ccc(C(=O)NCc3ccccc3)cc21 | -1.2% | -21.5%
CN(C)Cc1ccc(CNC(=O)c2nccnc2N)cc1 | 3.9% | -0.3%
Cc1cc2c(cc1S(=O)(=O)N(CCN(C)C)Cc1ccccc1)OCC(=O)N2 | -8.2% | -29.0%
CCOC(=O)c1cc(S(=O)(=O)N2CCN(c3ccc(OC)cc3)CC2)[nH]n1 | 145.4%[activator] | 0.0%
Cc1cccc(-c2nn3c(=O)cc(CN4CCN(S(=O)(=O)c5ccc(Cl)cc5)CC4)nc3s2)c1 | -17.0% | -17.8%
CCOc1ccc(Oc2ccc(Cl)cc2NC(=O)Cn2cnc3c2c(=O)n(C)c(=O)n3C)cc1 | -4.1% | 5.1%
CC(=O)Nc1ccc2nc(-c3ccccc3C)oc2c1 | 9.6% | 222.4%[activator]
COc1ccc(N2CCN(C(=O)c3ccc4c(c3)CCN4S(C)(=O)=O)CC2)cc1 | 4.1% | 32.2%[activator]
CCOc1ccccc1-n1nnc(-c2nc(-c3ccccc3)no2)c1N | 1.6% | 53.6%
O=C1C(=O)N(CCN2CCOCC2)C(c2ccccc2Cl)/C1=C(\O)c1ccc(Cl)cc1 (centres undefined) | 26.7% | 5.4%
CC(=O)N[C@@H](CS)C(=O)O | 5.3% | 0.0%[11.5 µM]
O=C(NC(C1CC1)C1CC1)C1CCCCC1 | 8.4% | 0.0%
CCCNc1nc(-c2ccc3c(c2)CCCN3S(C)(=O)=O)cs1 | 14.8% | 219.8%[activator]
Cc1ccc(NC(=O)C2CCN(c3nnc(C)c4c(C)n(-c5ccccc5)nc34)CC2)c(Cl)c1 | 8.5% | 40.8%[activator]
Cc1cc(NC(=O)c2cccc(Cl)c2)ccc1-c1cc2ccccc2oc1=O | -9.0% | -7.7%
COc1cc(F)ccc1-c1ccc(=O)n(CC(=O)N(C)C2CCS(=O)(=O)C2)n1 (centres undefined) | -12.5% | -7.3%
COc1ccc(CNC(=O)CN2C(=O)c3cccnc3Oc3ccc(C)cc32)cc1 | 25.4% | 7.2%
Cc1cc(C)c(C(=O)COC(=O)c2cccc(C)c2C)cc1C | 21.6% | 164.3%[activator]
CC(C)c1noc(C(C)Sc2nc(-c3ccco3)nc3ccccc23)n1 (centres undefined) | -15.0% | -7.7%
O=C(CSc1cn(CC(=O)N2CCCCC2)c2ccccc12)Nc1ccccc1 | -4.5% | -5.2%
Cc1cc(=O)oc2cc(OCC(=O)NC3(C#N)CCCCC3)ccc12 | 9.6% | 9.3%
COc1ccc(-n2nnnc2SCn2nnc3ccccc3c2=O)cc1 | -5.8% | 122.8%[activator]
Cc1cccc(/C=C/c2nc3ccccc3c(=O)n2-c2cccc(O)c2)c1 | -5.7% | 4.0%
C(=C\c1ccccc1)/CN1CCN(C(c2ccccc2)c2ccccc2)CC1 | -10.1% | -18.5%
COc1ccc(Nc2nc(N3CCN(Cc4ccccc4)CC3)nc3nccnc23)cc1 | 0.0% | 0.0%
CCCNC(=O)c1ccc(OC(C)C)cc1 | ? | 127.1%[activator]
COc1ccc(-c2nc(C#N)c(N(C)CCC#N)o2)cc1 | 0.0% | 44.0%[activator]
O=C(O)c1cc(-c2ccco2)nc2c(Cl)cccc12 | -19.9% | -12.0%

Further entries follow:
Compound | StopGo RLuc | StopGo FLuc
COc1cc(NS(=O)(=O)c2c(C)nc3sc(C)c(C)n3c2=O)cc(OC)c1 | 111.7%[activator] | -9.2%
CCCn1c2ccccc2c2cnn(CC(=O)NCCc3ccc(S(N)(=O)=O)cc3)c(=O)c21 | 7.3% | -3.0%
CCS(=O)(=O)c1ccc(OC)c(C(=O)OC)c1 | -12.2% | -15.2%[11.5 µM]
CC(=O)N1CCC(C(=O)Nc2ccc(Cl)cc2F)CC1 | -14.2% | 1.1%
COCCn1c(CN2CCCCC2C)nc2c1c(=O)n(C)c(=O)n2C (centres undefined) | -7.2% | 5.6%
Cc1cccc(N(C)S(=O)(=O)c2nnc(NC(=O)c3cccs3)s2)c1 | 79.9%[activator] | 8.1%
CCc1nonc1NC(=O)c1oc2cc(C)c(Cl)cc2c1C | 7.5% | 14.2%
CC(NC(=O)c1ccco1)c1nc2ccccc2n1Cc1ccc(Br)cc1 (centres undefined) | 6.7% | -2.3%
Cc1cccc(NS(=O)(=O)c2ccc(Cl)c(C(=O)Nc3ccccc3C)c2)c1 | 148.2%[activator] | -15.3%
CC(C)CN1CCN(c2nc3c(c(=O)[nH]c(=O)n3C)n2CCc2ccccc2)CC1 | -4.9% | 5.2%
COc1ccc(C(=O)Oc2cc(-c3ccc(OC)c(OC)c3)cc(=O)c3c(C)oc(C)c23)cc1 | ? | ?

Fetched by structure from the entries so far, 2 records:
Compound | StopGo RLuc | StopGo FLuc
CCCn1c2ccccc2c2cnn(CC(=O)NCCc3ccc(S(N)(=O)=O)cc3)c(=O)c21 | 7.3% | -3.0%
CC(=O)N1CCC(C(=O)Nc2ccc(Cl)cc2F)CC1 | -14.2% | 1.1%

This is a subset, so the mix of outcomes need not match the whole.
